Vaccinia pol inh: blocks vaccinia virus processive DNA synthesis | AID 493162 | in vitro processive DNA synthesis, absorbance read-out; active compounds read low; some inactives read as strong as hits | normalized absorbance, % (concentration not given with the values) | 0.94% of 46,000 active;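 active means replicate mean up to 90% and picked by the depositor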;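 further: 100% = median of the test wells of a plate; 100 nL library stock went into each well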
Numbers without * were called inactive.

structure | Vaccinia pol inh
CCC1CCCCN1C(=O)COC(=O)c1ccc(O)cc1 (stereo not given) | 83.2
O=C(COC(=O)c1ccccc1)NC1CC1 | 105.7
CC(C)N=Cc1nc(-c2ccccc2)[nH]c1Cl | 98.3
C=CCN1C(=O)C(CC(=O)Nc2ccccc2)SC1=Nc1ccc(O)cc1 (stereo not given) | 100.0
COc1cccc(-c2cc(C(F)(F)F)nc(-n3cccn3)n2)c1 | 99.5
CC(Sc1nnc(-c2cccc(Br)c2)o1)C(=O)c1ccccc1 (stereo not given) | 100.7
CC(=O)Nc1ccc2c(C)cc(=O)[nH]c2c1 | 92.8
O=C1/C(=C/c2ccco2)CC(c2ccccc2)C/C1=C\c1ccco1 (stereo not given) | 92.1
COc1ccc(S(=O)(=O)NCC23CC4CC(CC(C4)C2)C3)cc1 | 100.2
O=C1c2ccccc2C(=O)N1CSc1nc2ccccc2s1 | 97.6
O=C(CC(c1ccc(Cl)cc1)C1CCCCC1=O)c1ccc(Br)cc1 (stereo not given) | 99.9
CCN(Cc1ccncc1)C(=O)C(CO)c1ccccc1 (stereo not given) | 99.8
CCOC(=O)c1ccc(NC(=O)c2cc(Cl)sc2Cl)cc1 | 101.3
COc1ccc(C2NC(=O)c3c(sc4c3CCC4)N2)cc1 (stereo not given) | 108.0
COc1ccccc1/C=C1\SC(=S)N(c2ccccc2)C1=O | 100.1
COC(=O)COc1ccc(Oc2nc(SC)nc(N(C)C)n2)nn1 | 99.9
CCOC(=O)C1C2C=CC3(CN(C4CCCC4)C(=O)C13)O2 (stereo not given) | 104.8
O=C1/C(=C/c2ccc(-c3ccccc3Cl)o2)SC(=S)N1CC1CCCO1 (stereo not given) | 100.3
O=C(NCc1cccs1)C1CCN(c2ncnc3c2sc2cccc(F)c23)CC1 | 103.9
CCC(=O)N1N=C(c2ccccc2)CC1c1cc2cc(OC)ccc2nc1Cl (stereo not given) | 100.0
CN(C(=S)NCCc1ccccc1)C1CCCCC1 | 101.0
C=CCN1C(=O)/C(=C2/Sc3ccccc3N2CC)SC1=S | 100.4
N#Cc1c(NC(=O)CN2C(=O)CCC2=O)sc2c1CCC2 | 101.1
CCc1cccc(CC)c1NC(=O)CSc1ncn[nH]1 | 106.7
COc1ccc2cc(C(=O)Nc3ccc(O)cc3)sc(=O)c2c1OC | 102.2
COc1cc(C(=O)OC2CSCC2NC(=O)c2ccccc2)cc(OC)c1OC (stereo not given) | 96.0
CC(=O)N1CCc2c(sc(NC(=O)C(C)C)c2-c2nc3ccccc3s2)C1 | 108.4
CCCNC(=O)Cn1nc(C(F)(F)F)cc1C | 99.6
CCOC(=O)c1cc(C#N)c(C)nc1N1CCN(S(=O)(=O)c2ccccc2)CC1 | 106.8
CNC(=O)Nc1ccc(C(=O)OC)cc1 | 100.6
COc1ccc(C(=O)COc2ccccc2OC)cc1 | 101.2
O=c1ccc(C(F)(F)F)cn1-c1ccc(C(F)(F)F)cn1 | 102.9
CCc1ccc(OCC(=O)N2CCc3ccccc32)cc1 | 80.1
O=C1CCc2cc(C3=CSC4=NCCN34)ccc2N1 | 67.6
CSc1cccc(NS(=O)(=O)c2cccs2)c1 | 100.9
Cc1nc(Nc2nc3ccccc3o2)ncc1C(=O)Nc1cccc(C(F)(F)F)c1 | 93.8
COc1ccc(CC(=O)Nc2c(-c3ccc(F)cc3)nc3ccccn23)cc1 | 105.6
CCCCC/C=C\C=C\[C@@H](O)CCCCCCCC(=O)O | 99.9
CN(C)Cc1c(N)cc2ccccc2c1-c1ccccc1 | 100.8
CCC(=O)NC(C)c1nc2ccccc2n1C (stereo not given) | 99.5
CC(C)(O)C#Cc1ccc(C(=O)N2CCC(C(O)(c3ccccc3)c3ccccc3)CC2)o1 | 99.9
O=C(CSc1c[nH]c2ccccc12)Nc1nccs1 | 96.1
COC(=O)C1=Cc2cc(Cl)ccc2OC1 | 95.4
Cc1ccc(-c2nn3nnnc3c3ccccc23)cc1C | 99.5
O=C(NCc1ccccc1)c1ccc(S(=O)(=O)N2CCCCC2)cc1 | 91.6
CCOC(=O)c1ccc(NC(=O)c2ccc(Cl)s2)cc1 | 103.9
CC(C)Sc1nc2ccccc2c(=O)n1-c1ccc(F)cc1F | 88.0
CCOC(=O)COc1ccc(Br)cc1C#N | 91.1

Continued; the last eleven above are carried over.
structure | Vaccinia pol inh
CCCCC/C=C\C=C\[C@@H](O)CCCCCCCC(=O)O | 99.9
CN(C)Cc1c(N)cc2ccccc2c1-c1ccccc1 | 100.8
CCC(=O)NC(C)c1nc2ccccc2n1C (stereo not given) | 99.5
CC(C)(O)C#Cc1ccc(C(=O)N2CCC(C(O)(c3ccccc3)c3ccccc3)CC2)o1 | 99.9
O=C(CSc1c[nH]c2ccccc12)Nc1nccs1 | 96.1
COC(=O)C1=Cc2cc(Cl)ccc2OC1 | 95.4
Cc1ccc(-c2nn3nnnc3c3ccccc23)cc1C | 99.5
O=C(NCc1ccccc1)c1ccc(S(=O)(=O)N2CCCCC2)cc1 | 91.6
CCOC(=O)c1ccc(NC(=O)c2ccc(Cl)s2)cc1 | 103.9
CC(C)Sc1nc2ccccc2c(=O)n1-c1ccc(F)cc1F | 88.0
CCOC(=O)COc1ccc(Br)cc1C#N | 91.1
C=CCSc1nnc2c(n1)OC(c1ccc(-c3ccc(F)cc3)o1)N(C(C)=O)c1ccccc1-2 (stereo not given) | 100.8
COC(=O)c1sccc1NC(=O)c1ccc(C)cc1 | 80.6
N#Cc1cn(CC(=O)N2CCc3ccccc32)c2ccccc12 | 95.2
Cn1c(SCc2ccc3c(c2)OCO3)nc2ccccc2c1=O | 101.0
CC(C)Sc1nc(-c2cccs2)cc(C(F)(F)F)c1C#N | 107.7
Cn1ncc(NCCc2ccncc2)c(Cl)c1=O | 99.3
COC(=O)c1cccc(NC(=O)COC(=O)c2cc3ccccc3o2)c1 | 100.3
Cc1ccc(SCC(=O)Nc2nnc(SCc3ccccc3)s2)cc1 | 103.1
Oc1[nH]c2ccccc2c1C=NCc1ccccc1 | 99.5
CN1CCc2cc3c(cc2C1O)OCO3 (stereo not given) | 99.6
CCN1CCCC1CNC(=O)CCn1c(=O)c2cccn2c2cccnc21 (stereo not given) | 88.3
N#Cc1cccc(NC(=O)c2c(Cl)nc3sccn23)c1 | 108.2

Following part
SMILES	Vaccinia pol inh
O=C(NCCCN1CCN(C2CCCCC2)CC1)C1CCCN(S(=O)(=O)N2CCCCC2)C1 (stereo not given)	100.4
CC1CN(C)CC(C)C1(O)c1ccccc1 (stereo not given)	96.5
CC1=C(C(=O)NC2CCCCC2)C2(CCCCC2)OC1=O	100.4
COC(CN(C)S(=O)(=O)c1ccc2c(c1)oc(=O)n2C)OC	102.8
CCCOc1ccc(N)cc1OCCC	98.1
Cc1cc(-c2ccc(/C=C3/C(=O)NC(=O)N(C4CCCCC4)C3=O)o2)ccc1Br	100.7
CCCc1c(NC(=O)Nc2ccc(Cl)cc2Cl)cnn1-c1ccccc1	93.2
CCOC(=O)Cc1sc(Nc2ccccn2)nc1-c1ccccc1	94.6
O=C(C1CC2CCC1C2)N1CCN(c2ccc3c(c2)OCO3)CC1 (stereo not given)	100.5
Cc1ccc(P(C)(=O)c2ccc(C)cc2)cc1	100.1
Cc1n[nH]c(C)c1S(=O)(=O)N1CCc2ccccc21	89.6
COc1ccc(-n2nc(C(=O)NCC(=O)N3CCCC3)c3ccccc3c2=O)cc1	98.3
Cc1ccc(SC2=CCS(=O)(=O)C2)cc1	103.7
O=C(Nc1ccccc1)Nc1cc(C2CC2)nn1-c1ccccc1	90.9
O=C(NCc1cccc(Cl)c1)c1cnc2ccccn2c1=O	103.9
O=S(=O)(c1cccc2cccnc12)N1CCc2ccccc21	98.5
CCc1cccc(CC)c1NC(=O)CC#N	87.8
NNc1nnc2c(n1)[nH]c1ccccc12	100.1
COC(=O)CNC(=O)c1cc(OC)c(OC)c(OC)c1	99.1
CC(/C=C1\SC(=S)N(CCC(=O)NC2CCCCC2)C1=O)=C\c1ccccc1	100.0
O=C(Nc1ccccn1)c1ccc(Br)o1	102.1
Nc1ccc(-c2ccc(N)cc2)cc1	72.4*
O=C(O)CN1C(=O)/C(=C/C=C/c2ccccc2)SC1=S	73.9
O=C(NCCO)c1cc2ccccc2oc1=O	99.6
Cc1c[nH]c2cccc(OCC(O)CN3CCN(C(c4ccccc4)c4ccccc4)CC3)c12 (stereo not given)	100.8
CN(C)c1nc2c(c(=O)n(C)c(=O)n2C)n1CC(=O)c1ccccc1	95.7
Cc1ccc(-n2c(=O)oc3ccc(Cl)cc3c2=O)cc1Cl	99.8
O=C(c1ccccc1)c1cnc2ccccn2c1=O	99.8
Cc1cc(S(=O)(=O)N2CCCC2c2ccc(F)cc2)cc(C)c1F (stereo not given)	104.5
CCC(Sc1ccc(Cl)cc1)C(=O)Nc1nnc(C)s1 (stereo not given)	100.6
CC(C(=O)O)N1C(=O)/C(=C/c2ccccc2Cl)SC1=S (stereo not given)	89.9
COc1ccc(/C=C/C(=O)N2c3ccccc3COC2c2ccccc2)cc1 (stereo not given)	99.9
C/C=C/c1c(C)nc2sc(C#N)c(N)c2c1C	99.7
CCN(CC)CCn1c(NCc2ccc(C)o2)nc2ccccc21	103.1
O=C(/C=C/S(=O)(=O)c1ccc(Cl)cc1)c1ccc(F)cc1	112.7
O=C(C1CCCCC1)N1CC(=O)N(CCc2ccccc2)C(=O)C1	101.3
CCN1/C(=C/c2scc[n+]2C)C=C(C)c2cc(OC)c3ccccc3c21	27.0*
NC(=O)COC(=O)c1cc(Cl)cc(Cl)c1	96.2
O=C(/C=C/C=C/c1ccccc1)c1ccc(Cl)cc1	99.7
Cc1csc(Nc2ccc(F)c(Cl)c2)[n+]1C(C)C	89.7
Nc1cc(Cl)ccc1C(=O)OCC(=O)c1ccccc1	82.9
C/C(=C\c1nsc(Nc2ccc(Cl)cc2)n1)NCc1ccc2c(c1)OCO2	97.5
NN(C(=O)C1CCCCC1)c1nc2ccccc2s1	100.4
c1ccc(CNc2ncnc3nc[nH]c23)cc1	100.1
COC(=O)NCCOc1nc(N(C)C)nc(N(C)C)n1	100.4
CCCc1ccc(-c2c(C)sc(N)c2C#N)cc1	99.2
COc1ccc(CC(=O)OCC(=O)Nc2cc(C)ccc2C)cc1	96.8
CCOC(=O)c1cnc2c(C)c(C)ccc2c1NCCCN(C)C	39.1*
CCOC(=O)c1cc(C)sc1NC(=O)c1ccc(C)cc1	98.0
O=S(=O)(/C=C/c1ccc(Cl)cc1Cl)NCc1cccs1	104.0
CS(=O)(=O)c1ccc2nc(NC(=O)c3ccc(C(=O)c4ccccc4)cc3)sc2c1	98.5
c1ccc2[nH]c(C3CCCN3)nc2c1 (stereo not given)	112.1
CSC1=NCCN1S(C)(=O)=O	114.2
O=c1oc2ccccc2cc1-c1nnc(-c2cccc(Br)c2)o1	100.2
NOCC(=O)N1CCOCC1	82.4
CC(C)c1ccc(/C=C/C(=O)CCC(=O)O)cc1	97.9
Cc1nn(C)c(Oc2cccc(Cl)c2)c1C(=O)O	105.9
COc1ccc(-c2c(C)nn3c(N4CCC(C)CC4)cc(C)nc23)cc1OC	100.3
O=c1oc(-c2ccc(-c3ccccc3)cc2)nc2ccccc12	100.0
O=C(O)C1C2C=CC3(CN(Cc4ccncc4)C(=O)C13)O2 (stereo not given)	104.4

Remaining list, next part:
SMILES	Vaccinia pol inh
CCOC(=O)Cc1csc(NC(=O)COc2cccc3ccccc23)n1	99.3
COc1ccccc1NC(=O)CN1c2cccc3cccc(c23)S1(=O)=O	100.2
O=C(ON1C(=O)c2cccc3cccc(c23)C1=O)c1ccccc1	88.5
Cc1csc2c(=O)n(CCN3CCSCC3)c(=O)[nH]c12	116.5
COC(=O)C1=C(C)NC(C)=C(C(=O)OC)C1C	96.2
CC(C)(CC(=O)O)CC(=O)N1CCN(c2ncccc2C#N)CC1	94.8
c1ccc(-c2nc3c4ccccc4ccn3c2CN2CCOCC2)cc1	99.9
C=CCOc1ccc2ccccc2c1/C=N/O	95.3
FC(F)(F)c1cccc(N2CCN(C3=Cc4ccccc4CC3)CC2)c1	97.1
O=C(/C=C/c1ccc(Br)o1)NC1=NCCS1	93.4
Nc1ccccc1Oc1ccc2ccccc2c1	88.6
CCOC(=O)c1c(/N=C/c2c(O)n(C)c3ccccc23)sc(C)c1C	99.9
CC1=C(C(=O)Nc2ccc(Cl)cc2C(=O)N2CCN(c3ccccc3)CC2)SCCO1	100.0
Cn1c(COc2ccc(C(C)(C)c3ccccc3)cc2)n[nH]c1=S	85.3
COC(=O)CN1C(=O)CSc2ncccc21	96.0
OCc1cn(-c2ccccc2)nc1-c1cccs1	97.9
Brc1ccc2c3c(ccc2c1)OCN(c1ccccc1)C3	100.2
O=C(O)[C@@H]1CCCN1Cc1ccccc1	100.6
CSc1nc(N)nc(SCC(=O)Nc2ccccc2)c1C#N	99.9
Cc1sc2ncnc(NCCc3ccc4c(c3)OCCO4)c2c1C	101.1
Cc1ccc2c(Cl)c(C(=O)N3CC(C)OC(C)C3)sc2c1 (stereo not given)	100.2
COc1ccc2oc(CS(=O)c3ccccc3)c(C(=O)O)c2c1 (stereo not given)	110.0
Cc1nc2ccccc2n1CC1CC1(Cl)Cl (stereo not given)	118.6
Cc1ccccc1NC(=O)OC1CN2CCC1CC2 (stereo not given)	122.6
CN(C)C(=O)c1cnc(-c2ccccc2)nc1-c1ccccc1	87.2
O=C(NCc1ccncc1)C1c2ccccc2Oc2ccccc21	100.5
O=C(O)c1ccc2nsnc2c1	100.0
Cc1cc(C)cc(NC(=O)CCCn2c(=O)c3cccn3c3cccnc32)c1	97.9
CC1CCC(C(C)C)C(OC(=O)NC(=O)C(F)(F)F)C1 (stereo not given)	115.8
O=C(NC(OCc1ccccc1)C(=O)c1ccccc1)c1ccccc1 (stereo not given)	100.1
C=C1c2cc(C)cc(C)c2NC(=O)N1CC	99.6
COc1ccc(-c2c(C)sc(=NCCO)n2-c2ccccc2)cc1	99.8

Screening data (PubChem BioAssay)

Only part of the results is shown (hit frequency here may not be typical).
